From PubChem BioAssay
Sa ugtP lethal – kills S. aureus RN4220 lacking UgtP | S. aureus RN4220 ugtP deletion, OD600 growth, 16 h; some inactives read as strong as hits | growth inhibition, % (concentration not given with the values) | 330,000 tested, 0.54% active | AID 1259309;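 active means z-score under -3 and OD600 up to 0.15 on both plates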;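 further: plate controls were untreated wells for no effect and antibiotic for full effect; wells of about 80 µL received 100 nL stock; the first replicate is given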
Autofluor counter – counter-screen for toxin protease inhibitors: compound fluorescence; fluorescence intensity (no concentration beside the values); 360,000 tested, 3.1% active; AID 624483; compound autofluorescence counterscreen, microsphere flow cytometry; hits give high values;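 active means at least 3 SD above the mean of all compounds, about 16000 in these data; inconclusive means too few beads counted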;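 further: 100 nL of 1 mM stock went into each well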
Mtb hypoxia inh – Mtb hypoxia fluorescent reporter inhibition; fluorescence inhibition, % (test concentration not listed); 300,000 tested, 0.1% active; M. tuberculosis hypoxia-regulated fluorescent reporter, fluorescence;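 active means 35 to 45% if threefold the growth effect, above 45% if 1.5-fold the growth effect; inactive means the rest, general growth blockers included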;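 further: wells of about 50 µL received 100 nL stock; 0% = vehicle wells and 100% = reference inhibitor wells; whole bacteria with a GFP reporter of the hypoxia response; strong numbers were not always called active; many hits fall short of the cut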
Sa RN4220 lethal – kills Staphylococcus aureus RN4220; 330,000 tested, 0.33% active; AID 1259311; inhibition, % (test concentration not listed); S. aureus RN4220 growth, OD600, 16 h;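 active means z-score of -3 or lower and OD600 up to 0.18 on both plates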;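 further: plate controls were untreated cells for no effect and reference antibiotic for full effect; stock transfer was 100 nL into about 80 µL; one replicate is shown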
BJeLR lethal – kills HRASV12-expressing BJeLR cells. BJeLR (HRASV12) viability, CellTiter-Glo ATP luminescence, 48 h; reference of the scale not given here. inhibition, % (no concentration beside the values). 300,000 tested, 0.17% active. AID 1554;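 active means replicate mean above 50%; inconclusive means above 50% but judged a plate artefact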;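 further: 50 nL library stock added to about 25 µL; numbers are from one replicate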
PrP UTR inh – suppresses PrP 5' UTR mRNA reporter expression. 340,000 tested, 0.35% active. cell-based PrP 5' UTR mRNA reporter, plate reader. inhibition, % (test concentration not listed);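 active means every replicate at 50% or more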;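 further: 0 = median of the neutral control wells; tested in H4 reporter cells; numbers are from one replicate; inactives centre near -14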
Mtb hypoxia inh growth – further read-out of Mtb hypoxia inh, marked with its call; growth inhibition, %; measured here: M. tuberculosis growth (absorbance);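 0% = vehicle and 100% = reference antibiotic; read after six days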
An asterisk follows results filed as active; u = inconclusive; x = no result given.

structure,Sa ugtP lethal,Autofluor counter,Mtb hypoxia inh,Mtb hypoxia inh growth,Sa RN4220 lethal,BJeLR lethal,PrP UTR inh
Cc1csc(SCC(=O)N(C)CC(=O)Nc2ccc(F)cc2)n1,5,3934,4,8,5.9,-1,-6
O=C(Cc1cccs1)NNC(=S)NCc1ccco1,2,4669,12,1,7.2,0,-46
O=C(c1ccco1)N(Cc1ccccc1)c1cccc([N+](=O)[O-])c1,4,2481,-2,3,2.2,-6,-6
CCOC(=O)c1c(S(=O)(=O)NCC(=O)NCc2cccc(C)c2)c(C)n(C)c1C,7,7801,5,2,4.5,-5,-9
COC(=O)c1sc2ncccc2c1OCc1ccccc1Cl,-5,18888*,3,-2,18,4,-12
CCCc1nc2ccccc2c(=O)n1CC(=O)c1ccc(F)cc1,0,3743,11,9,-0.5,-2,13
Cc1ccc(CNC(=O)C(=O)NCC2CCCN2S(=O)(=O)c2cc(C)ccc2C)cc1 (stereo not drawn),-2,6711,5,2,2.3,2,-4
CCN1CCc2c(C#N)c(N3CCOCC3)nc(NCCO)c2C1,9,3654,7,2,4.7,-18,2
CN(C)CCCOc1cccc(Oc2ccccc2)c1,6,2414,10,11,4.5,1,-22
CN(CCC#N)C(=O)COC(=O)c1c2c(nc3ccccc13)/C(=C\c1ccco1)CC2,-10,3427,3,5,4.0,x,-40
CC(C)C(NC(=O)c1ccco1)C(=O)OCC(=O)NCCc1ccccc1 (stereo not drawn),0,2861,-10,-2,2.4,x,-20
O=C(COC(=O)c1ccc(=O)n(Cc2ccccc2)n1)Nc1ccc2c(c1)OCCO2,-1,4328,-4,3,1.5,-11,-30
COc1ccc(NC(=O)CSc2nccn2-c2cccc(OC)c2)cc1,5,4697,x,x,3.0,9,-14
O=C(Cc1ccc([N+](=O)[O-])cc1)NC(C(=O)O)C(O)c1cccc([N+](=O)[O-])c1 (stereo not drawn),7,3733,14,3,3.7,-7,-32
CCOc1ccc2nc(/N=C/c3c(C)[nH]n(-c4ccccc4)c3=O)sc2c1,x,1936,x,x,x,6,-45
Oc1ccc(/C=N/Nc2ccnc3cc(Cl)ccc23)c(O)c1,x,3973,x,x,x,3,-74
Cc1cc(OCCCCN2C(=O)NC(C)(C)C2=O)cc(C)c1Cl,-6,23207*,3,16,7.8,5,-9
S=c1nc(-c2ccco2)[nH][nH]1,3,2818,1,0,4.0,12,-34
Cn1c(C(=O)NN)cc2cc(Oc3ccccc3)ccc21,3,3577,0,1,-0.4,3,-22
CCc1cccc(NC(=O)CCNS(=O)(=O)c2cc(Br)cnc2N)c1,-4,5456,14,0,8.7,1,-41
Cc1nn(-c2cc(N3CCCCC3)ccc2N)c(=O)c2ccccc12,7,20582*,5,-3,2.6,-23,-5
O=C(O)CN1c2cccc3cccc(c23)S1(=O)=O,-2,4242,-5,0,0.1,-3,5
COc1ccccc1N(CC(=O)NC(C)(C)C)S(=O)(=O)c1cccs1,3,11251,16,5,7.6,-8,-34
CSc1nc(C)c(CCOC(=O)c2ccccc2)c(=O)[nH]1,-7,9610,6,6,6.0,-8,7

Entries of single compounds, looked up by structure. Order of values: Sa ugtP lethal	Autofluor counter	Mtb hypoxia inh	Mtb hypoxia inh growth	Sa RN4220 lethal	BJeLR lethal	PrP UTR inh
`Cc1csc(SCC(=O)N(C)CC(=O)Nc2ccc(F)cc2)n1` is listed with 5	3934	4	8	5.9	-1	-6
`CCCc1nc2ccccc2c(=O)n1CC(=O)c1ccc(F)cc1` is listed with 0	3743	11	9	-0.5	-2	13
`CCN1CCc2c(C#N)c(N3CCOCC3)nc(NCCO)c2C1` is listed with 9	3654	7	2	4.7	-18	2
`CCOc1ccc2nc(/N=C/c3c(C)[nH]n(-c4ccccc4)c3=O)sc2c1` is listed with x	1936	x	x	x	6	-45

(next part)
structure,Sa ugtP lethal,Autofluor counter,Mtb hypoxia inh,Mtb hypoxia inh growth,Sa RN4220 lethal,BJeLR lethal,PrP UTR inh
COc1cccc(COC(=O)Cc2ccc(S(=O)(=O)N3CCOCC3)s2)c1OC,12,7117,5,-1,6.0,x,-16
CC(=O)c1ccc(NC(=O)C(C)Nc2ccc(Cl)cc2)cc1 (stereo not drawn),1,4646,-11,-3,-7.9,-12,-24
CC1(C)C[C@H](O)[C@]2(CO)CC[C@]3(C)C(=CCC4[C@@]5(C)CC[C@H](O)C(C)(C)C5CC[C@]43C)[C@@H]2C1 (stereo partly drawn),-7,4932,x,x,18,x,-32
O=C(O)/C=C/C(=O)Nc1ccc(N2CCOCC2)nc1N1CCOCC1,-2,6287,12,6,0.7,3,-12
Cc1ccc(CNC(=O)C2CC(=O)N(C3CCCCCC3)C2)cc1 (stereo not drawn),3,4685,4,-6,-0.9,-11,-15
O=C(N/C(=C\c1ccccc1)C(=O)N1CCOCC1)c1ccccc1Cl,2,42511*,0,1,1.3,-2,-10
Cc1ccc(Sc2ncccc2C=NO)cc1,7,x,8,6,11,x,x
O=C(c1ccc(NS(=O)(=O)c2cccc([N+](=O)[O-])c2)cc1)N1CCCCCC1,3,4726,5,-1,3.6,6,-5
Cc1cccc(C(=O)NN=C2SCC(=O)N2Cc2ccccc2)c1,3,x,-1,-2,1.4,x,x
CC(C)[C@@H]1CN=C(N)N1C[C@@H]1CCCN1C[C@H](C)N1C[C@@H](Cc2ccccc2)N(CCc2ccc(Cl)c(Cl)c2)C1=N,100*,2992,x,x,101*,x,0
Cc1ccc2oc(-c3ccc(C)c(NC(=O)Cc4cccs4)c3)nc2c1,-5,2908,0,4,-10,-1,-50
Cc1cc(=O)[nH]c(SCC(=O)c2ccccc2)c1C#N,-4,3402,-1,3,7.9,-3,-14
CC(CNC(=O)CN1C(=O)CCSc2ccccc21)c1ccccc1 (stereo not drawn),13,3406,0,10,1.5,4,-2
Cc1cc(C)n(CC(C)NCc2cn[nH]c2-c2ccc(C)c(C)c2)n1 (stereo not drawn),2,28071*,-1,4,2.6,32,-21
CS(=O)(=O)N(CC(=O)NCc1ccco1)Cc1ccc(Cl)cc1,0,2835,x,x,7.0,-7,-2
O=C1C=C(N2CCOCC2)c2ccccc2C1=O,4,3286,-1,0,18,-2,2
CCNc1nc(N)nc(Oc2ccc(C(=O)OC)cc2)n1,2,2934,14,11,0.4,-1,-26
CC[C@]1(C(=O)OC)[C@H]2C(=O)N(C)C(=O)[C@H]2[C@H]2CN=C(SCc3ccc(Cl)cc3)N21,5,4006,1,1,3.9,x,-20
O=C(CCn1[nH]c(=O)c2ccccc2c1=O)OC1CCCCC1,-1,10269,-5,11,-2.3,4,0
c1cnc(N2CCN(c3nc4ccccc4n4cnnc34)CC2)nc1,-2,15058,-9,-6,1.5,1,2
COc1cccc(NC(=O)N(Cc2ccco2)C(C)c2cccs2)c1 (stereo not drawn),9,7701,10,0,-0.2,4,-27
CC(C)CC(CO)N1CCN(C(=O)c2cccc(Cl)c2)CCC1=O (stereo not drawn),0,3957,8,5,2.1,-3,1
Cc1nn(-c2ccc(C(=O)O)cc2)c(C)c1Cl,1,4503,11,3,11,8,-15
O=C(CCC1CCCC1)Nc1nnc(-c2ccc3c(c2)OCO3)s1,12,2604,7,3,5.7,-8,-23
Cc1[nH]c(C)c(S(=O)(=O)NCc2ccc(F)cc2)c1C(=O)N1CCCCC1,0,6637,12,6,-1.5,9,-12
N#Cc1c(N)nc2c(c1N)CC(CO)O2 (stereo not drawn),-6,3003,4,3,-18,-9,3
OCC[C@@H]1C[C@@H](O)[C@H](O)[C@]2(OCCc3ccccc32)O1,x,3436,x,x,x,11,-23
Cc1nc(-c2ccc(NC(=O)CC(C)C)cc2)cs1,3,1982,4,7,-1.6,2,-158
COC(=O)c1ccc(CO/N=C/c2ccccc2OC)cc1,x,2802,x,x,x,-1,0
CCc1nnc(NC(=O)CCC(=O)N2CCN(Cc3ccccc3)CC2)s1,2,9670,5,4,5.9,0,-30
O=C(CN(CC1CCCO1)C(=O)CNS(=O)(=O)c1ccc(Cl)cc1)NC1CCCC1 (stereo not drawn),4,3862,1,-3,2.0,2,-28
C=CCOC(=O)/C(=C\c1ccccc1)NC(=O)c1ccco1,4,2276,7,-2,5.7,0,-21
CC(=NCCc1c[nH]c2ccccc12)c1c(O)n(Cc2ccccc2)c(=O)[nH]c1=O,-12,3851,9,-3,-0.7,0,-18
Cc1ccc(CNC(=O)Cc2cn(C)c3ccccc23)cc1,17,4196,15,5,6.9,-8,-7
O=C(NCc1ccccc1)C1CCC(=O)N(CCN2CCOCC2)C1 (stereo not drawn),0,5707,-6,0,-1.4,2,-8
O=C(Nc1ccc(C(F)(F)F)cc1)c1cccc(-n2cnnn2)c1,7,2930,12,9,2.0,x,-19
CCN(CC)C(=O)Cn1cc(S(=O)(=O)CC(=O)NCc2ccc3c(c2)OCO3)c2ccccc21,3,x,3,1,4.3,-11,0
CCOC(=O)c1sc(NC(=O)C2CCCCC2)nc1C,6,6628,2,15,5.9,-4,-46
COc1cc(OC)cc(C(=O)Nn2cc(C(=O)Nc3ccccc3F)c3ccccc3c2=O)c1,-8,6981,-7,1,4.4,9,-13
CC(C)(O)C#CC#CCN1CCOCC1,0,3676,x,x,5.6,16,-4
CCCCCCCOc1ccc(OC(=O)c2ccncc2)cc1,51,8269,3,5,4.4,-13,6
O=c1[nH]c(NN=Cc2ccc(O)cc2)nc2ccccc12,-7,x,-13,21,-0.1,x,x
O=C(c1ccc2c(c1)OCO2)N1CCc2ccccc2C1,5,11130,12,13,9.6,-4,-69
O=C(O)c1cc([N+](=O)[O-])ccc1C(=O)Nc1cccc([N+](=O)[O-])c1,13,2921,7,2,5.4,-6,-25
O=C(Cn1nc(Cc2cccnc2)c2ccccc2c1=O)NCCCN1CCCC1=O,8,6203,x,x,-0.5,-3,-4
COCCCn1c(SCC(=O)N2CCCC(C)C2)nnc1-c1ccco1 (stereo not drawn),1,21046*,2,7,6.7,-5,-73
COC(=O)c1ccc(C23CC4(C2)[C@H](CN(CC2CCCCC2)[C@@H]4c2ccccc2)C3c2ccc(Cl)nc2)cc1 (stereo partly drawn),x,4787,x,x,x,1,-8
COc1ccc(NN=C(C#N)C(=N)SCc2ccccc2)cc1,4,x,18,10,13,x,x
Cc1ccc2oc(=O)c3cc(C(=O)NCCCN4C(C)CCCC4C)sc3c2c1 (stereo not drawn),0,9037,-4,-10,-3.8,10,-8
CCCNC(=O)C(=O)NN=Cc1ccc(OCc2ccccc2)cc1,-2,x,15,0,4.8,x,x
CN(Cc1ccccc1)C(=O)CN(c1ccccc1Cl)S(C)(=O)=O,11,3081,13,4,4.6,-3,15
CC(OC(=O)C1CCCC1)C(=O)Nc1ccc(S(N)(=O)=O)cc1 (stereo not drawn),x,4366,x,x,x,13,12
COc1cc(NC(=S)NN2CCN(C)CC2)cc(OC)c1,2,4750,-2,6,2.4,-8,0
COc1ccc(NS(=O)(=O)c2ccc3ccccc3c2)c2ncccc12,x,5441,x,x,x,0,18
O=C(NCCO)c1c(O)c2cccc3c2n(c1=O)CC3,-6,3165,-3,6,-0.3,-2,-19
COCCn1cc(C(=O)N2CCCC(C)C2)c2c3ccccc3n(C)c2c1=O (stereo not drawn),1,11638,8,9,0.8,-5,-20
COC(=O)C1=C(c2ccc(F)cc2OCc2ccccc2)C[C@@H]2CC[C@H]1N2C(=O)NCc1ccc(OC)cc1,4,3835,1,2,-25,x,-13
COc1cc(C(=S)N(C)C)ccc1O,-3,4355,x,x,1.9,x,-8
O=C(CSc1nc2[nH]ncc2c(=O)n1-c1ccc(Cl)c(Cl)c1)NCc1ccccc1Cl,1,4554,-4,3,11,0,-8
Cc1cc(C)c2cc(C(c3nnnn3C3CCCC3)N3CCOCC3)c(=O)[nH]c2c1 (stereo not drawn),7,9576,4,15,5.6,-1,-7
O=c1c2ccccc2ncn1Cc1nc2ccccc2s1,1,u,7,8,-9.1,-2,-11
CCCCN(CC(=O)NC1CC1)S(=O)(=O)c1ccc(OCC)cc1,1,6278,8,7,1.2,x,-10
